# Source: PubChem BioAssay
# HCMV NEC inh = inhibitors of HCMV UL50-UL53 interaction, biochemical, HTRF; normalized percent inhibition; actives 0.15% (n = 190,000); HCMV UL50-UL53 nuclear egress complex (human cytomegalovirus); inhibition, % (concentration not given with the values); AID 1918969, 2023;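 active means both replicates at 50% or more, plus weaker picks with an unusually low signal ratio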;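 further: stock transfer was 100 nL into about 20 µL; 0% = negative control wells and 100% = wells with untagged competitor protein; inactives centre near -12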
# GIV-Gai inh = inhibitors of GIV peptide binding to Galpha-i3, primary screen, biochemical, fluorescence polarization, FITC-GIV GBA peptide, rat Galphai3; AID 1224905, 2016; percent of control (FP), % (concentration not given with the values); 90 min; hits give low values; scaled: aluminum fluoride 0%, vehicle 100%; actives 0.42% (n = 210,000); Guanine nucleotide-binding protein G(i) subunit alpha-3 (Rattus norvegicus), P08753;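 active means replicate mean at 85% of control or lower, very high polarization wells dropped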;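 further: wells of about 15 µL received 100 nL stock; the first replicate is given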
# Target sequence (P08753 whole entry, looked up): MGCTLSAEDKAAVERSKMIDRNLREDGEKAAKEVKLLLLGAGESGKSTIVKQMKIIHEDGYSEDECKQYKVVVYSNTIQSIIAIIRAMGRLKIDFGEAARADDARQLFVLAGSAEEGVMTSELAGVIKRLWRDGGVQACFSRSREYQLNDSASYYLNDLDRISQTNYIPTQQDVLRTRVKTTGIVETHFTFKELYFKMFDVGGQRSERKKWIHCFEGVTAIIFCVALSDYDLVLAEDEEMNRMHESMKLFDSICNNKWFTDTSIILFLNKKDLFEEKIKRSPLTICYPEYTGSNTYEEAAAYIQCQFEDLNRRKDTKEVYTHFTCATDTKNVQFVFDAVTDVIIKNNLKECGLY
# * marks the source's active call; other numbers are inactive results; nt = not tested or not shown; & = joins results of further samples.
1	O=c1n(Cc2cccc(Cl)c2)nc2c(S(=O)(=O)N3CCOCC3)cccn12
2	O=c1n(CCOc2ccccc2)nc2c(S(=O)(=O)N3CCc4ccccc4C3)cccn12
3	O=C(Cn1c2ccccc2c2ncn(Cc3nc(C4CC4)no3)c(=O)c21)NC1CCCC1
4	Cc1sc(C)c(S(=O)(=O)NCc2cccs2)c1-c1cc(C(F)(F)F)on1
5	Cc1ccc(Cn2nc3c(S(=O)(=O)N4CCCC4)cccn3c2=O)cc1
6	Fc1ccc(-c2noc(Cc3nc(-c4ccc(Cl)cc4)cs3)n2)cc1
7	Cc1ccc(NS(=O)(=O)c2cc(-c3nc(C)cs3)sc2C)c(C)c1
8	Cc1cc(-c2csc(S(=O)(=O)N(Cc3ccco3)C3CCCC3)c2)on1

compound no.,1,2,3,4,5,6,7,8
HCMV NEC inh,nt,nt,nt,nt,nt,nt,nt,nt
GIV-Gai inh,103,112,109,108,104,171,108,106

9	OCCCNc1nc(Nc2ccccc2)c2cnn(-c3ccccc3)c2n1
10	Cc1cc(-c2cc(S(=O)(=O)NCc3ccccc3Cl)c(C)s2)n[nH]1
11	CCc1ccc(-c2ccc(=O)n(CCc3nc(-c4cccc(C)c4)no3)n2)cc1
12	O=c1ccc(-c2ccc3c(c2)OCO3)nn1CCc1nc(-c2cccc(Cl)c2)no1
13	COc1cccc(N2CCN(C(=O)C3CCN(c4ncnc5c4oc4ccccc45)CC3)CC2)c1
14	CC1CCN(S(=O)(=O)c2cc(-c3ccc(=O)[nH]n3)cs2)CC1
15	CCOC(=O)C(CC)n1nc2ccc(S(=O)(=O)N3CCC(C)CC3)cn2c1=O (stereo unspecified)
16	O=C(NCc1cccnc1)C1CCN(c2ncnc3c2oc2ccccc23)CC1

compound no.,9,10,11,12,13,14,15,16
HCMV NEC inh,nt,nt,nt,nt,nt,nt,nt,nt
GIV-Gai inh,104,103,104,106,105,102,103,108

17	Cc1cc(C(=O)NC2CC2)no1
18	CN(C)C(=O)N1CC(c2nc(-c3ccc(F)cc3)no2)C2(CCOCC2)C1 (stereo unspecified)
19	O=C(CCN1CCN(CCO)CC1)N1c2ccccc2Sc2ccc(C(F)(F)F)cc21
20	CN(C)C/C=C(\c1ccc(Br)cc1)c1cccnc1
21	O=C(Nc1ncc(SCCN2CCCC2)s1)[C@]1(c2ccc(S(=O)(=O)C3CC3)cc2)CC1C1CCCCC1 (stereo partly specified)
22	CC(=O)Oc1ccc2c(C)cc(=O)oc2c1
23	C[C@@H]1C[C@H]2[C@@H]3CCC4=CC(=O)C=C[C@]4(C)[C@@]3(Cl)[C@@H](O)C[C@]2(C)[C@@]1(OC(=O)c1ccco1)C(=O)CCl
24	CNc1nccc(-c2cccnc2Oc2cc(C(=O)Nc3cccc(C(F)(F)F)c3)ccc2C)n1

compound no.,17,18,19,20,21,22,23,24
HCMV NEC inh,nt,nt,nt,3,-2,-15&-24,-51,-25&-20&-25
GIV-Gai inh,104,103,100,nt,nt,nt,nt,nt

# The list goes on (two carried over from the part before).
23	C[C@@H]1C[C@H]2[C@@H]3CCC4=CC(=O)C=C[C@]4(C)[C@@]3(Cl)[C@@H](O)C[C@]2(C)[C@@]1(OC(=O)c1ccco1)C(=O)CCl
24	CNc1nccc(-c2cccnc2Oc2cc(C(=O)Nc3cccc(C(F)(F)F)c3)ccc2C)n1
25	COCCCOc1cc(CC(CC(N)C(O)CC(C(=O)NCC(C)(C)C(N)=O)C(C)C)C(C)C)ccc1OC (stereo unspecified)
26	CCc1ccccc1OC[C@@H](O)CN[C@H]1CCCc2ccccc21
27	Cc1ccc(C(=O)Nc2cccc(C(F)(F)F)c2)cc1-c1ccc2nc(NCCN3CCOCC3)ncc2c1
28	O=C(O)c1ccc(Nc2ncc3c(n2)-c2ccc(Cl)cc2C(c2c(F)cccc2F)=NC3)cc1
29	COCCOc1ccc2c(c1)ncn2-c1ccc2cccc(N3CCC(N)CC3)c2n1
30	O=C(O)c1ccc(-n2nc(-c3ccccc3O)nc2-c2ccccc2O)cc1
31	CCCCOc1cc(C(=O)OCCN(CC)CC)ccc1N
32	Cn1cnc(-c2cc3nccc(Oc4ccc(NC(=S)NC(=O)Cc5ccccc5)cc4F)c3s2)c1

compound no.,23,24,25,26,27,28,29,30,31,32
HCMV NEC inh,-51,-25&-20&-25,-21,0,-15&-27&-21,-4,-51,15,-7&-15&-28,4
GIV-Gai inh,nt,nt,nt,nt,nt,nt,nt,nt,nt,nt

33	O=C(Nc1cccc(Cl)c1)Nc1ncc(CCNc2ncnc3ccsc23)s1
34	COc1cc(N)c(Cl)cc1C(=O)N[C@H]1CCN(CCCOc2ccc(F)cc2)C[C@H]1OC
35	CC#CCn1c(N2CCCC(N)C2)nc2c1c(=O)n(Cc1nc(C)c3ccccc3n1)c(=O)n2C (stereo unspecified)
36	O=C(O)C1Cc2ccccc2CN1 (stereo unspecified)
37	Cc1cc(=O)oc2cc(O)ccc12
38	CCN(CC)CCN(Cc1ccc(-c2ccc(C(F)(F)F)cc2)cc1)C(=O)Cn1c(SCc2ccc(F)cc2)nc(=O)c2c1CCC2
39	COc1ccc(-c2ccc3c(N4CCOCC4C)nc(N4CCOCC4C)nc3n2)cc1CO (stereo unspecified)
40	CN(C)CC=CC(=O)Nc1cc2c(Nc3ccc(F)c(Cl)c3)ncnc2cc1OC1CCOC1 (stereo unspecified)

compound no.,33,34,35,36,37,38,39,40
HCMV NEC inh,3&10&4&0,-2,10,-5,-7&-17&-53,-2,-39&-7&-11&-10&-29,10&-26&-12&9
GIV-Gai inh,nt,nt,nt,nt,nt,nt,nt,nt

41	CCOc1nc2cccc(C(=O)O)c2n1Cc1ccc(-c2ccccc2-c2noc(=O)[nH]2)cc1
42	CNC(=O)c1cc(COc2nnc(Nc3ccc(Cl)cc3)c3ccoc23)ccn1
43	CC1C[C@H]2[C@@H]3CCC4=CC(=O)C=C[C@]4(C)[C@]3(Cl)C(O)C[C@]2(C)[C@]1(OC(=O)c1ccco1)C(=O)CCl (stereo partly specified)
44	CCCCCCCCCCCCCCC[C@@H](O)[C@@H](N)CO
45	CC[C@]12CCCN3CCc4c(n(c5ccccc45)[C@](O)(C(=O)OC)C1)[C@@H]32
46	CCOC1OC(=O)CC1NC(=O)C1CCCN1C(=O)C(NC(=O)c1ccc(N)c(Cl)c1)C(C)(C)C (stereo unspecified)
47	CC(=O)OCC(=O)[C@@]1(O)CC[C@H]2[C@@H]3CCC4=CC(=O)C=C[C@]4(C)[C@@]3(F)[C@@H](O)C[C@@]21C
48	CC(=O)N[C@@H](Cc1ccccc1)C(=O)O

compound no.,41,42,43,44,45,46,47,48
HCMV NEC inh,-28,6,2,2,5,-3,5,-42
GIV-Gai inh,nt,nt,nt,nt,nt,nt,nt,nt

49	CCC(=O)O[C@]1(C(=O)SCF)C(C)CC2C3CC(F)C4=CC(=O)C=C[C@]4(C)[C@@]3(F)C(O)C[C@@]21C (stereo partly specified)
50	CCC(=O)Nc1cccc(Oc2nc(Nc3ccc(N4CCN(C)CC4)cc3OC)ncc2Cl)c1
51	Cc1cc2c(F)c(Oc3ncnn4cc(OCC(C)O)c(C)c34)ccc2[nH]1 (stereo unspecified)
52	Cc1cc(CC(C)CC(C)(C)C)n(O)c(=O)c1 (stereo unspecified) (tested in a mixture with another compound)
53	CN(C(=O)c1c(O)c2ccccc2n(C)c1=O)c1ccccc1
54	NC(Cc1c[nH]c2ccc(O)cc12)C(=O)O (stereo unspecified)
55	OCC1CN(Cc2ccccc2)C(c2ccccc2)O1 (stereo unspecified)
56	Nc1ncnc2c1c(-c1cccc(OCc3ccccc3)c1)cn2C1CC(CN2CCC2)C1 (stereo unspecified)

compound no.,49,50,51,52,53,54,55,56
HCMV NEC inh,-41,-2,-7,-90&-54,-8,-1,-4,-8
GIV-Gai inh,nt,nt,nt,nt,nt,nt,nt,nt

57	CCC1OC(=O)CC(O)C(C)C(OC2OC(C)C(O)C(N(C)C)C2O)C(CCN2CC(C)CC(C)C2)CC(C)C(=O)C=CC(C)=CC1COC1OC(C)C(O)C(OC)C1OC (stereo unspecified)
58	c1cn2cc(-c3ccc4cn[nH]c4c3)nc(Nc3ccc(N4CCOCC4)cc3)c2n1
59	Cn1cc(-c2ccc3nnc(Sc4ccc5ncccc5c4)n3n2)cn1
60	CC1(C)CC(=O)c2c(C(F)(F)F)nn(-c3ccc(C(N)=O)c(NC4CCC(O)CC4)c3)c2C1 (stereo unspecified)
61	CNCc1ccc(-c2[nH]c3cc(F)cc4c3c2CCNC4=O)cc1
62	CC(C)c1nn(-c2c(Cl)cccc2Cl)c2nc(Cc3ccc(OCCO)cc3)[nH]c(=O)c12
63	Cc1cc(Cn2cnc3c2C[C@@H](C(=O)O)N(C(=O)C(c2ccccc2)c2ccccc2)C3)ccc1N(C)C
64	COc1cc2ncn(-c3cc(OCc4ccccc4S(C)(=O)=O)c(C#N)s3)c2cc1OC

compound no.,57,58,59,60,61,62,63,64
HCMV NEC inh,3,-10,-65,9,-58,-20,-12,-16
GIV-Gai inh,nt,nt,nt,nt,nt,nt,nt,nt

65	CC[C@]1(O)C[C@H]2CN(CCc3c([nH]c4ccccc34)[C@@](C(=O)OC)(c3cc4c(cc3OC)N(C)[C@H]3[C@@](O)(C(=O)OC)[C@H](OC(C)=O)[C@]5(CC)C=CCN6CC[C@]43[C@@H]65)C2)C1
66	CC(Cc1cccc(C(F)(F)F)c1)NCCOC(=O)c1ccccc1 (stereo unspecified)
67	CCN(CC)CCOc1ccc(Cc2ccccc2)cc1
68	CN(C)C(=O)c1cc2cnc(Nc3ccc(N4CCNCC4)cn3)nc2n1C1CCCC1
69	OCCn1cc(-c2ccc3c(c2)CCC3=NO)c(-c2ccncc2)n1
70	O=C(Nc1ccccc1Br)NC1CCN(c2ccc(C(F)(F)F)cn2)C1 (stereo unspecified)
71	CNC(=O)c1cc(Oc2ccc(NC(=O)Nc3ccc(Cl)c(C(F)(F)F)c3)c(F)c2)ccn1
72	COc1cc(C=O)ccc1O

compound no.,65,66,67,68,69,70,71,72
HCMV NEC inh,-2,-19,-4,0,-26,-12,-11,-22
GIV-Gai inh,nt,nt,nt,nt,nt,nt,nt,nt

73	CNc1nc(Nc2cnn(C3CCN(C4COC4)CC3F)c2Cl)ncc1C(F)(F)F (stereo unspecified)
74	COc1cc2nccc(Oc3ccc(NC(=O)C4(C(=O)Nc5ccc(F)cc5)CC4)cc3)c2cc1OC
75	O=C(O)c1cc(=O)c2ccccc2o1
76	Cc1nnc(-c2ccc3occ(-c4ccc(S(C)=O)cc4)c3c2)o1 (stereo unspecified)
77	Cc1ncc(-c2ccnc(Nc3ccc(S(C)(=O)=O)cc3)n2)n1C(C)C
78	CCn1c(-c2nonc2N)nc2c(C#CC(C)(C)O)ncc(OCC3CCCNC3)c21 (stereo unspecified)
79	CCc1cccc(CC)c1NC(=O)CN(CC(=O)O)CC(=O)O
80	COc1cc2nccc(Oc3ccc(NC(=O)NC4CC4)c(Cl)c3)c2cc1C(N)=O

compound no.,73,74,75,76,77,78,79,80
HCMV NEC inh,4,-1&-11,-9,0,4,-26&11&-1&-1,-32,-46&-20&-32&-33
GIV-Gai inh,nt,nt,nt,nt,nt,nt,nt,nt

# Compounds listed so far containing an aryl methoxy group (ten):
13	COc1cccc(N2CCN(C(=O)C3CCN(c4ncnc5c4oc4ccccc45)CC3)CC2)c1
25	COCCCOc1cc(CC(CC(N)C(O)CC(C(=O)NCC(C)(C)C(N)=O)C(C)C)C(C)C)ccc1OC (stereo unspecified)
34	COc1cc(N)c(Cl)cc1C(=O)N[C@H]1CCN(CCCOc2ccc(F)cc2)C[C@H]1OC
39	COc1ccc(-c2ccc3c(N4CCOCC4C)nc(N4CCOCC4C)nc3n2)cc1CO (stereo unspecified)
50	CCC(=O)Nc1cccc(Oc2nc(Nc3ccc(N4CCN(C)CC4)cc3OC)ncc2Cl)c1
64	COc1cc2ncn(-c3cc(OCc4ccccc4S(C)(=O)=O)c(C#N)s3)c2cc1OC
65	CC[C@]1(O)C[C@H]2CN(CCc3c([nH]c4ccccc34)[C@@](C(=O)OC)(c3cc4c(cc3OC)N(C)[C@H]3[C@@](O)(C(=O)OC)[C@H](OC(C)=O)[C@]5(CC)C=CCN6CC[C@]43[C@@H]65)C2)C1
72	COc1cc(C=O)ccc1O
74	COc1cc2nccc(Oc3ccc(NC(=O)C4(C(=O)Nc5ccc(F)cc5)CC4)cc3)c2cc1OC
80	COc1cc2nccc(Oc3ccc(NC(=O)NC4CC4)c(Cl)c3)c2cc1C(N)=O

compound no.,13,25,34,39,50,64,65,72,74,80
HCMV NEC inh,nt,-21,-2,-39&-7&-11&-10&-29,-2,-16,-2,-22,-1&-11,-46&-20&-32&-33
GIV-Gai inh,105,nt,nt,nt,nt,nt,nt,nt,nt,nt

# This is a subset (hit frequency here may not be typical).
